CBX7 AlphaScr: blocks human CBX7 binding to H3K27me3 peptide. normalised signal (fraction of DMSO) (no concentration beside the values). AlphaScreen His6-CBX7 / biotin-H3K27me3 peptide binding; hits give low values. O95931. AID 1224903. 66,000 compounds, 1.1% hits; in the data active = normalised signal below about 0.5;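 also: 100 nL library stock added to about 20 µL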
Target sequence (O95931 whole entry, looked up): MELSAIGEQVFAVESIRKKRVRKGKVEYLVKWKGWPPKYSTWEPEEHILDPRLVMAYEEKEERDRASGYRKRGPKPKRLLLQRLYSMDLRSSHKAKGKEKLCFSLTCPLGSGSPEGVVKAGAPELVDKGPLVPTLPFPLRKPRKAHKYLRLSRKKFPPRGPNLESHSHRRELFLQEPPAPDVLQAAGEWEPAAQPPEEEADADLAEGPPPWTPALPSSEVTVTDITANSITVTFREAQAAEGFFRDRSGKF
CBX7 AlphaScr z-score: further read-out of CBX7 AlphaScr, marked with its call; z-score; measured here: z-score of CBX7 signal; some inactives read as strong as hits; reference of the scale not given here;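 same signal on another scale; lower means less binding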
An asterisk follows results filed as active.

Value order: CBX7 AlphaScr | CBX7 AlphaScr z-score
1	O=C(CCN1C(=O)COc2ccccc21)NCCN1CCN(c2ccccc2F)CC1
 : 1.05 | 1.61
2	CC(O)c1nc2ccccc2n1C(C)c1ccccc1 (stereo not drawn)
 : 1.01 | 0.31
3	CCn1cc(C(=O)NCC(OC)OC)c(=O)c2ccc(C)nc21
 : 0.906 | -0.0938
4	CCn1c(NC(=O)COc2cccc(C(F)(F)F)c2)nc2ccccc21
 : 1 | 0.258
5	CCn1c(C(=O)Nc2cc(C)cc(C)c2)cc2sc(Cl)cc21
 : 0.991 | -0.349
6	Cc1ccc(-n2cc(-c3ccc(Cl)cc3)[nH]c2=O)cc1Cl
 : 1.04 | 1.31
7	O=C(N1CCN(c2nc(-c3ccccc3)c3ccccc3n2)CC1)C(F)(F)F
 : 1.51 | 5.02
8	O=c1cc(Cc2nnc(SCc3cccnc3)n2-c2ccc(Cl)cc2)[nH]c(=O)[nH]1
 : 0.981 | -0.0387
9	COc1ccccc1CNC(=O)Cn1ccc2ccccc2c1=O
 : 1.48 | 4.29
10	Oc1ccc(-c2ccccc2)cc1CN1CCN(c2ccccc2)CC1
 : 1.1 | 1.12
11	CC(C)c1ccc(NC(=O)C(c2ccccc2)N(C)c2ccccc2)cc1 (stereo not drawn)
 : 1.1 | 0.604
12	Nc1nc(-c2ccc(NC(=O)c3ccccc3)cc2)cs1
 : 0.865 | -1.45
13	O=C(NC1CCCCC1)C(c1ccccc1)N1CCc2ccccc21 (stereo not drawn)
 : 0.526 | -11.8
14	CCCN1CCN(C(=O)c2cnc(N3CCN(c4ncccn4)CC3)c3ccccc23)CC1
 : 1.03 | 0.115
15	O=C(Nc1ccccc1)Nc1ccc2snnc2c1
 : 1.1 | 4.03
16	Cc1cc(N2CCC(C(=O)Nc3ccc(F)cc3C)CC2)n2nc(C)c(-c3ccc(Cl)cc3)c2n1
 : 1.09 | 0.221
17	COc1ccc(C2C(=C(O)c3ccccc3)C(=O)C(=O)N2CCCn2ccnc2)cc1 (stereo not drawn)
 : 1.04 | 1.02
18	COc1ccc(C(=O)NCCc2cc3ccc(C)c(C)c3[nH]c2=O)c(OC)c1
 : 0.996 | -0.081
19	COc1ccc(NC(=O)c2ccc(N3C(=O)C4C5C=CC(C5)C4C3=O)cc2)cc1 (stereo not drawn)
 : 0.994 | -0.158
20	Cc1ccc(Cl)cc1-n1nc(-c2ccc(Cl)cc2)cc1-c1ccc(Cl)cc1
 : 0.858 | -2.18
21	CCOc1ccc(OCC)c(NC(=O)CCNS(=O)(=O)c2ccc3c(c2)CCN3C(C)=O)c1
 : 1.11 | 1.38
22	O=C(c1nsnc1-c1ccccc1O)N1CCOCC1
 : 1.04 | 0.756
23	COc1ccccc1NC(=O)C(CCS(C)(=O)=O)NC(C)=O (stereo not drawn)
 : 1.04 | 1.94
24	CCC(=O)N1CCc2cc(S(=O)(=O)NCCC(=O)Nc3ccc(OC)c(Cl)c3)ccc21
 : 0.86 | -3.48
25	COc1ccccc1NC(=O)c1cc2c(s1)-c1c(C)cccc1OC2
 : 1.22 | 7.47
26	COc1ccc(-c2nc(Nc3c(F)cccc3F)c3ccccc3n2)cc1OC
 : 0.923 | -2.32
27	Cc1ccc(CN2C(=O)c3ccccc3Sc3ccc(C(=O)NCCN4CCOCC4)cc32)cc1
 : 0.902 | -0.973
28	O=C1NCCCC1C(=O)Nc1cccc(C(F)(F)F)c1 (stereo not drawn)
 : 1.02 | 0.628
29	Cc1ccc(S(=O)(=O)c2cn(CC(=O)Nc3cccc(C)c3)c3cc4c(cc3c2=O)OCO4)cc1
 : 0.836 | -2.29
30	CCN(CC)C(=O)c1ccc2c(c1)N(Cc1ccc(Cl)cc1)C(=O)c1ccccc1S2=O (stereo not drawn)
 : 0.974 | -0.48
31	COc1ccc(NC(=O)Nc2cccs2)cc1Cl
 : 0.904 | -4.35
32	CCCCC(NC(=O)c1ccccc1)c1nc2ccccc2[nH]1 (stereo not drawn)
 : 1.21 | 1.69
33	Cc1cccn2cc(-c3cccc(NS(=O)(=O)c4ccc(F)cc4)c3)nc12
 : 1.23 | 4.77
34	CCc1ccc(N2CC(C(=O)Nc3cccc(C)n3)CC2=O)cc1 (stereo not drawn)
 : 0.849 | -1.8
35	COc1ccccc1NC(=O)CSc1nc2ccccc2n1S(=O)(=O)c1ccc(Cl)cc1
 : 0.804 | -0.195
36	O=C(NCc1c(F)cc(F)cc1F)c1ccc2c(c1)N(Cc1ccc(F)cc1Cl)C(=O)CS2
 : 1.15 | 2.27
37	Cc1cc(C)c(Cc2c(C)nc3ncnn3c2C)c(C)c1
 : 1.18 | 4.68
38	CCc1nn2c(C(=O)NCc3ccccc3)cc(=O)nc2s1
 : 0.872 | -1.38
39	COC(=O)c1c[nH]n2c(NC3CCCCCC3)c(-c3ccc(OC)cc3)nc12
 : 0.339* | -13*
40	Cc1ccc(C(=O)c2oc3ccccc3c2NC(=O)COc2ccccc2)cc1
 : 0.926 | -0.953
41	COc1cccc(CN2C(=O)c3ccccc3Sc3ccc(C(=O)NC(C)c4ccccc4)cc32)c1 (stereo not drawn)
 : 1.01 | 0.186
42	Cc1cc(NC(=O)CCc2c(C)nc3c(-c4ccccc4)c(C)nn3c2C)ccc1Br
 : 1.17 | 1.85
43	CC1CCN(c2c(NCc3ccc(C(=O)N4CCc5ccccc54)cc3)c(=O)c2=O)CC1
 : 1 | 0.00465
44	COc1cc(NS(=O)(=O)c2ccc(NC(=O)c3ccccc3C)cc2)nc(OC)n1
 : 1.29 | 2.76
45	CCN(CC)S(=O)(=O)c1ccc(C(=O)Nc2sc3c(c2C(=O)OC)CCN(C(C)=O)C3)cc1
 : 1.04 | 2.09

Entries of single compounds, looked up by structure:
`Nc1nc(-c2ccc(NC(=O)c3ccccc3)cc2)cs1` reads CBX7 AlphaScr: 0.865; CBX7 AlphaScr z-score: -1.45
`COc1ccc(C2C(=C(O)c3ccccc3)C(=O)C(=O)N2CCCn2ccnc2)cc1` (stereo not drawn) reads CBX7 AlphaScr: 1.04; CBX7 AlphaScr z-score: 1.02
`Cc1cc(C)c(Cc2c(C)nc3ncnn3c2C)c(C)c1` reads CBX7 AlphaScr: 1.18; CBX7 AlphaScr z-score: 4.68

Continuation:
Value order: CBX7 AlphaScr | CBX7 AlphaScr z-score
46	Cc1cc(=O)n2nc(N3CCC(C(=O)N4CCCCCC4)CC3)sc2n1
 : 1.04 | 1.99
47	CCN(CCCNC(=O)Cc1cn(C)c2ccccc12)c1ccccc1
 : 0.498* | -10.7*
48	CCCN(C(=O)Cc1c(C(=O)O)[nH]c2ccc(Cl)cc12)c1cccc(Cl)c1
 : 0.969 | -0.92
49	COc1ccc(Br)cc1CN1C(=O)CCC1(C)C(=O)NC1CCCCCC1 (stereo not drawn)
 : 1.07 | 2.04
50	COc1ccc(C2C(C(=O)Nc3cc(C)ccn3)=C(C)NC3=C2C(=O)CCC3)cc1 (stereo not drawn)
 : 0.805 | -1.99
51	O=C(O)C1Cc2c([nH]c3ccccc23)C(c2cc(OCc3ccccn3)ccc2Br)N1 (stereo not drawn)
 : 0.944 | -1.35
52	Cc1cc(C)cc(CC2CC(=O)N(c3ccccn3)C2=O)c1 (stereo not drawn)
 : 1.18 | 1.96
53	CS(=O)(=O)c1ccc(-c2nnn(CC(=O)Nc3ccc(OC(F)(F)F)cc3)n2)cc1
 : 1.18 | 0.501
54	CCOc1ccc(-n2ccnc2SCC(=O)Nc2cc(OC)ccc2OC)cc1
 : 1.17 | 1.35
55	CN(CCc1ccccn1)C(=O)c1nn2c(C(F)(F)F)c3c(nc2c1Cl)-c1ccccc1CC3
 : 1.18 | 1.77
56	O=C(Nc1ccc(OC(F)(F)F)cc1)c1cnc2ccccn2c1=O
 : 0.982 | -0.261
57	COc1ccccc1CNC(=O)[C@H](CCS(C)(=O)=O)N1Cc2ccccc2C1=O
 : 0.971 | -0.189
58	CN(CCCNC(=O)CC1Nc2ccccc2NC1=O)C1CCCCC1 (stereo not drawn)
 : 1.14 | 1.11
59	COc1ccc(NC(=O)c2cnc(N3CCN(c4ccccc4OC)CC3)c3ccccc23)cc1OC
 : 0.734 | -6.33
60	c1ccc(-n2nnnc2SCc2cn3cccnc3n2)cc1
 : 0.932 | -0.268
61	COc1ccccc1-c1c(C)nn2c(N3CCC(C)CC3)cc(C)nc12
 : 1.14 | 1.52
62	CCOC(=O)N1CCN(c2c(NCc3ccccn3)c(=O)c2=O)CC1
 : 1.03 | 0.56
63	Cc1nc2ccc(S(=O)(=O)NC(CC(C)C)C(=O)NC(C)(C)C)cc2s1 (stereo not drawn)
 : 1.01 | 0.555
64	COc1ccc(C)cc1Nc1nc(C)nc2sc(C)c(C)c12
 : 0.915 | -1.22
65	COc1ccc(C2CC(=O)N(Cc3ccc(F)cc3)c3ccccc3S2)cc1OC (stereo not drawn)
 : 1.14 | 2.01
66	Cc1oc(-c2ccc(Cl)cc2)nc1C(=O)NCCN1CCCCCC1
 : 1.04 | 0.0899
67	COc1cccc(NC(=O)C(CC(C)C)NS(=O)(=O)c2ccc3nc(C)sc3c2)c1 (stereo not drawn)
 : 1.02 | 0.61
68	COc1ccc2[nH]cc(CCNC(=O)Nc3ccccc3)c2c1
 : 0.952 | -1.92
69	CCC(=O)N1CCc2cc(S(=O)(=O)CCC(=O)Nc3nccs3)ccc21
 : 1.03 | 0.82
70	O=C(NCC1CCCO1)c1c[nH]c2ccc(S(=O)(=O)Nc3ccc4c(c3)OCCO4)cc2c1=O (stereo not drawn)
 : 1.07 | 0.969
71	Cc1ccc2nc(-c3ccccc3)cc(C(=O)NCc3ccccc3)c2c1
 : 1.13 | 1.27
72	COc1ccc(-n2ccnc2SCC(=O)NCc2ccc3c(c2)OCO3)cc1
 : 0.909 | -0.12
73	CCN(CCCNC(=O)CN1N=C(c2ccccc2)CCC1=O)c1cccc(C)c1
 : 0.706 | -4.57
74	Cc1cc(Cl)ccc1OCC(=O)Nc1ncnc2sc3c(c12)CCCC3
 : 1.08 | 1.98
75	CC1(C)CC(=O)c2c(nn(-c3ccccc3)c2-c2cccnc2)C1
 : 1.02 | 0.828
76	CN(Cc1ccccc1)C(C(=O)NC1CCCC1)c1ccccc1 (stereo not drawn)
 : 0.857 | -3.57
77	Cc1cccc(NC(=O)Nc2cccc(C#N)c2)n1
 : 0.997 | -0.00407
78	Cc1ccc2oc(-c3cccc(NC(=O)c4ccc(F)cc4)c3C)nc2c1
 : 1.06 | 0.559
79	CCOC(=O)Cc1csc(NC(=O)CN(C)S(=O)(=O)c2cccc3cccnc23)n1
 : 1.11 | 2.5
80	COc1ccc(Nc2c(-c3ccc(OC)cc3)nc3cnccn23)cc1
 : 0.841 | -2
81	COc1ccccc1CNC(=O)c1ccc2c(c1)nc(C)n2-c1cccc(F)c1
 : 1.03 | 1.25
82	O=C1CSc2ccc(C(=O)NCCCN3CCN(Cc4ccccc4)CC3)cc2N1
 : 1.11 | 1.14
83	O=C(Nc1cc(Cl)ccc1Cl)c1noc2c1CCCC2
 : 1.14 | 0.183
84	COc1ccccc1N1C(=O)C2C3C=CC(C)(O3)C2C1=O (stereo not drawn)
 : 1.14 | 1.06
85	O=C(NCc1cccnc1)c1nn2c(c1Cl)NC(c1ccccc1)CC2C(F)(F)F (stereo not drawn)
 : 1.09 | 0.763
86	Cc1nccc2[nH]c(=O)c(C(=O)NCCCN3CCC(Cc4ccccc4)CC3)cc12
 : 1.34 | 1.97
87	Cc1nc(N)sc1-c1csc(Nc2ccc(Cl)cc2)n1
 : 0.383* | -12.2*
88	Cc1ccnc(NC(=O)CN(c2ccc(C(C)C)cc2)S(=O)(=O)c2c(C)nn(C)c2C)c1
 : 1.04 | 0.561
89	CC(CCc1ccccc1)NC(=O)C1CCC(Cn2c(=O)[nH]c3ccsc3c2=O)CC1 (stereo not drawn)
 : 1.03 | 0.153
90	O=C(NCc1ccccn1)c1ccc2c(c1)N(Cc1ccccc1)CCS2
 : 0.58 | -0.557
91	COc1ccccc1-c1cc2nc(C)c(CCC(=O)N3CCCC3)c(C)n2n1
 : 0.91 | -1.48
92	C=CCn1c(CCNC(=O)c2ccccc2)nc2ccccc21
 : 0.941 | -0.853
93	COc1ccc(OC)c(NC(=O)CSc2nnc(Cc3cc(=O)[nH]c(=O)[nH]3)n2-c2ccccc2)c1
 : 1.07 | 2.3
94	C=CCn1c(SCC(=O)Nc2ccc(C(=O)OCC)cc2)nnc1-c1cccnc1
 : 0.993 | -0.255
95	Cc1ccc(-c2nc(SCC(=O)Nc3nccs3)c(-c3ccc(C)cc3)[nH]2)cc1
 : 0.831 | -2.89
96	COc1ccc2nc(SCC(N)=O)[nH]c2c1
 : 1.06 | 0.589
97	Cc1cc(NC(=O)CSc2nnc(-c3c[nH]c4ccccc34)n2C)no1
 : 1.04 | 0.674
98	O=C(NCCc1ccc(Cl)cc1)c1csc2c1CCCC2
 : 1.08 | 2.54
99	O=C(NC1CCCC1)C1CC(=O)N(CCc2ccccc2)C1 (stereo not drawn)
 : 0.953 | -1.19
100	Cc1ccc(-c2cc(C(F)(F)F)n3nc(C(=O)Nc4cccnc4Cl)cc3n2)cc1
 : 0.929 | -0.94
101	CCOC(=O)c1sc2nc(C)n(CC(=O)NCc3ccccc3)c(=O)c2c1C
 : 1.03 | 0.841
102	CCOc1ccc2nc(N3CCC(C(=O)NC4CCCc5ccccc54)CC3)sc2c1 (stereo not drawn)
 : 0.978 | -0.098
103	O=C1CCN(S(=O)(=O)c2ccc3[nH]cc(C(=O)O)c(=O)c3c2)CC1
 : 0.537 | -6.19

Reformatted: entries from further up.
98) O=C(NCCc1ccc(Cl)cc1)c1csc2c1CCCC2
95) Cc1ccc(-c2nc(SCC(=O)Nc3nccs3)c(-c3ccc(C)cc3)[nH]2)cc1
92) C=CCn1c(CCNC(=O)c2ccccc2)nc2ccccc21
99) O=C(NC1CCCC1)C1CC(=O)N(CCc2ccccc2)C1 (stereo not drawn)
93) COc1ccc(OC)c(NC(=O)CSc2nnc(Cc3cc(=O)[nH]c(=O)[nH]3)n2-c2ccccc2)c1
screen / no.	98	95	92	99	93
CBX7 AlphaScr	1.08	0.831	0.941	0.953	1.07
CBX7 AlphaScr z-score	2.54	-2.89	-0.853	-1.19	2.3

An excerpt (hit frequency here may not be typical).
